# From PubChem
# Bfl-1 A1 inh = inhibitors of the anti-apoptotic protein A1, read as caspase activation; MEF A1-2A-BIM cells, Caspase-Glo 3/7 luminescence, 3 h; percent of clofoctol response, vehicle zero; caspase activation, % (test concentration not listed); hit rate 0.066% among 330,000;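 active means over half of replicate activation scores above 10%, or exactly half above 10 with the replicate mean above 10; inconclusive means replicate mean below 10 yet half the replicates above 10; inactive means over half of replicates below 10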;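 further: wells of about 30 µL received 50 nL stock; many hits fall short of the cut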
# rRNA inh HTS = inhibitors of bacterial rRNA selective over humanized ribosomes | E. coli WT GFP vs humanized-ribosome RFP mutants, fluorescence, 24 h; stronger effect = lower value; DMSO median 0, no signal -100 | GFP signal change (wild-type ribosome), % (no concentration beside the values) | hit rate 1.6% among 350,000 | AID 720706;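 active means significant combined selectivity score with lowered wild-type GFP, culture density cut under 30%, mutant RFP and density less affected; inactive means any of these conditions unmet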; further: one replicate is shown; some compounds called inactive have numbers as strong as hits
# AF4-AF9 inh = inhibitors of human MLL-AF4/AF9 interaction; P42568; inhibition, % at 10 µM; AlphaScreen, biotin-AF4 peptide binding to FLAG-AF9; hit rate 0.47% among 350,000;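 active means every replicate reaching a set inhibition limit, whatever the replicate mean, cut at about 25% in these data; inconclusive means mean inhibition reaches that limit but some replicates miss it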;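 further: 0% = plate neutral control median and 100% = total signal loss; the record names both 10 and 1 µM as test concentration; the first replicate is given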
# Target sequence (P42568 whole entry, looked up): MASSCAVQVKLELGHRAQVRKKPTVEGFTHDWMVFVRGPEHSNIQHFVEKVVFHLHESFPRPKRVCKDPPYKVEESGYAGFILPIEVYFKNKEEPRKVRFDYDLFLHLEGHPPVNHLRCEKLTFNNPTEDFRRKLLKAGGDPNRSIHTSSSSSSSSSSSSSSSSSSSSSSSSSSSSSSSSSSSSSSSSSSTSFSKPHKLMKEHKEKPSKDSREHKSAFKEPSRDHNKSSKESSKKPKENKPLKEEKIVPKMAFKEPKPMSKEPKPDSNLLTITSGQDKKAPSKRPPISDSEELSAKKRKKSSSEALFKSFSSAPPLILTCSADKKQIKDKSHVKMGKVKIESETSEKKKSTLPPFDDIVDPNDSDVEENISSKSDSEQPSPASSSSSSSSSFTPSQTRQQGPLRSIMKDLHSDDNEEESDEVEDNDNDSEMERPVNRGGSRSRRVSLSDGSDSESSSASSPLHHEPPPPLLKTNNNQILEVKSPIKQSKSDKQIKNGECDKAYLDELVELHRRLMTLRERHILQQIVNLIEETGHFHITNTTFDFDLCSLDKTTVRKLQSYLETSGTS
# Beta apoptosis = beta cell apoptosis inhibition; INS-1E cytokine-induced death, ATP luminescence, 48 h; percent of positive-control rescue, neutral wells zero; hit rate 0.8% among 300,000; protection from apoptosis, % (no concentration beside the values);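 active means all replicates at 75% or more, or half of them and the mean; inconclusive means half reach 75% but not the mean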;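 further: 0% = cytokine-treated negative control wells and 100% = positive control rescue; higher means more ATP so stronger rescue from cytokine killing; wells of about 40 µL received 100 nL stock; the first replicate is given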
# RanGTP-Impb inh = disruptors of Ran-importin-beta complex formation – biochemical, FRET, CFP-Ran, YFP-importin-beta, homogeneous, primary screen; cell-free CFP-Ran/YFP-importin-beta FRET ratio; inhibition, % (no concentration beside the values); hit rate 1.1% among 300,000; AID 2216;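 active means most replicates above 15%; inconclusive means exactly half above 15%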;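 further: 0% = DMSO wells and 100% = Ran loaded with GDP instead of GTP; wells of about 40 µL received 100 nL stock; the first replicate is given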
# T cruzi inh = T. cruzi replication inhibition; inhibition, % (concentration not given with the values); T. cruzi beta-gal in NIH3T3, luminescence, 90 h; hit rate 1.4% among 300,000;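 active means mean inhibition across valid replicates above about 55%, limit read from the data; inconclusive means mean below that limit but half or more replicates reach it; inactive means mean below it, under half of replicates reach it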;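 further: signal also drops with host cell toxicity which is not excluded here; 0% = plate median of DMSO wells and 100% = zero luminescence signal; higher percent means less beta-gal luminescence so fewer parasites; stock transfer was 50 nL into about 50 µL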
# Vif A3G = inhibitors of Vif binding to APOBEC3G peptide, primary screen, biochemical, TR-FRET, GST-Vif 1-94, biotin-A3G peptide, dose response retest (AID 1117319); TR-FRET GST-Vif / biotin-A3G peptide binding; higher % means a stronger effect; test concentration not given here; strong numbers were not always called active; inhibition, %; hits with a dose series show IC50 in µM; hit rate 0.57% among 260,000;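 active means above the screen mean plus three standard deviations and confirmed in dose response; inconclusive means results disagree or hit not tested in dose response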;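 further: Vif residues 1-94 fused to GST binding biotinylated APOBEC3G peptide 110-148; 0% = full assay without inhibitor and 100% = GST in place of GST-Vif; retest series ran down from 100 µM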
# Calb FLC = affects C. albicans growth with fluconazole; C. albicans CaCi-2 (fluconazole-resistant clinical isolate) + fluconazole, Alamar Blue growth, 48 h; growth inhibition, % (concentration not given with the values); hit rate 0.57% among 300,000; AID 1979;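 active means most replicates above 75%; inconclusive means exactly half above 75%; inactive means most below 75%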;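 further: all wells also contain fluconazole at 8 µg/ml as a sub-toxic cotreatment; 0% = median of DMSO wells and 100% = median of geldanamycin control wells; wells of about 8 µL received 7.5 nL stock; the first replicate is given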
# rRNA inh HTS OD600 = second read-out of rRNA inh HTS, no call of its own (marks repeat the call); OD600 change, %; measured here: OD600 growth;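 optical density of the mix in the first replicate; 0 = DMSO median and -100 = no signal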
# rRNA inh HTS RFP = further read-out of rRNA inh HTS, marked with its call; RFP signal change, %; measured here: RFP humanized mutant strains;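 first replicate; 0 = DMSO median and -100 = no signal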
# Active calls of the source: *; ? = inconclusive; . = not tested or not shown; & = joins results of further samples; ! = a repeat was not active. Not all compounds are listed; count on the stated rates, not on these rows.
SMILES,Bfl-1 A1 inh,rRNA inh HTS,rRNA inh HTS OD600,rRNA inh HTS RFP,AF4-AF9 inh,Beta apoptosis,RanGTP-Impb inh,T cruzi inh,Vif A3G,Calb FLC
Cc1c(C(=O)NCc2ccccc2CN2CCCC2)oc2c(F)cccc12,-0.1,-10,-22,-0.3,2.2,0,.,.,-3%,.
COC(=O)CSc1nc(N)c(C#N)c(-c2ccc(O)cc2)c1C#N,1.1,-11,-11,-9.4,-4.4,-8,-2.6,-3,-163%,-5
CC1(C)CSC(=NCc2ccccc2)N1C(=O)c1cccc([N+](=O)[O-])c1,0.4,13,5,-5.0,5.3,6,-2.8,1,?,-10
CC(=O)c1cnn(-c2cc(Oc3ccc(F)cc3)ncn2)c1C,-0.3,.,.,.,.,-4,3.6,3,16%,-17
CC(OC(=O)c1cccc(-n2cnnn2)c1)c1nc2ccccc2c(=O)[nH]1 (stereo unspecified),-1.1,0,0,-13,-0.3,-4,.,.,.,.
CCOC(=O)C1(Cc2ccccc2Cl)CCN(C(=O)c2cnccn2)CC1,-0.3,20,9,2.2,-1.8,-3,1.9,3,-5%,4
CCC(=O)c1ccc(OCC(=O)NCCc2ccccn2)cc1,0.4,14,9,-0.1,-1.1,-5,-4.5,-7,.,-5
CCC(NC(=O)c1cc(COc2ccc(F)cc2Cl)on1)c1ccncc1 (stereo unspecified),.,-9,-26,0.1,2.4,.,3.5,10,.,3
COCCNCC(=O)NC12CC3CC(CC(C3)C1)C2,-0.3,.,.,.,.,0,4.5,1,3%,-4
COc1cc(N=c2ssnc2Cl)cc(OC)c1OC,0.0,.,.,.,.,5,4.8,-10,3%&-3%,-29
Cc1nnc(Nc2ccccc2)n(N)c1=O,-0.2,.,.,.,.,4,0.7,-17,3%,-5
CC(=O)c1sc(NC(=O)c2cccc(C)c2)nc1C,-8.1,4,20,5.4,-1.5,.,?,4,.,?
CCN(CC)CCN(C(=O)CCOc1ccccc1)c1nc2ccc(F)cc2s1,-0.1,5,0,-0.6,11,-2,3.4,38,5%,10
CC(C)(C)c1ccc(S(=O)(=O)NCc2ccc(C(=O)NCC3CCCO3)cc2)cc1 (stereo unspecified),0.5,-6,-9,1.2,-1.7,-6,-1.4,-1,.,13
C[n+]1cccc(C(=O)NCC2CCCO2)c1 (stereo unspecified),0.2,13,8,-7.0,-4.6,-7,4.4,-27,.,-6
O=C(N/N=C/c1ccc(O)cc1)c1cc[n+](Cc2ccccc2)cc1,-1.0,.,.,.,.,-3,?,-4,-7%,?
CCOC(=O)c1cn(Cc2ccccc2)nn1,0.2,8,12,3.3,1.3,-3,-4.8,-8,6%,14
CSc1cccc(NC(=O)c2ccccc2N(C)S(C)(=O)=O)c1,0.0,.,.,.,.,-1,?,-8,23%,-5
CCc1ccc2c(c1)[C@]1(C(=O)N2)[C@@H]2C(=O)N(Cc3ccccc3)C(=O)[C@@H]2[C@@H]2CCCN21,-0.8,-29,-36,6.2,.,-2,-2.9,18,13%,25
O=C1CN(C(=O)NCC(=O)N2CCCC2)c2ccccc2N1,-0.1,4,7,0.6,4.2,.,3.4,-7,.,-3
COc1cccc(C(=O)N2CCN(Cc3ccccc3[N+](=O)[O-])CC2)c1,0.5,-2,-6,-2.7,1.8,-17,-1.3,-3,2%,15
Cc1cc(=O)c2ccccc2[nH]1,0.0,.,.,.,.,8,-4.9,-8,0%,-11
C[C@@H](O)C(C(=O)N1CCNCC1)n1cc([C@@H](N)CCCCN)nn1 (stereo partly specified),-0.5,5,-2,0.0,18,-1,.,.,.,.
COc1ccc(CN2CCC(n3nccc3NC(=O)c3cccc(F)c3)CC2)cc1O,0.3,11,2,2.0,2.2,-6,-3.5,-7,0%,-3
CCCC1(C(=O)O)NC(c2cccc(OC)c2O)C2C(=O)N(c3ccccc3)C(=O)C21 (stereo unspecified),1.7,0,6,-1.4,5.3,.,1.0,2,1%,34
CC(C)(C)c1cc(-c2ccco2)c(C#N)c(SCC#N)n1,0.6,.,.,.,.,.,0.2,45,-2%,-4
O=C1NCCN(Cc2cccc(Oc3ccccc3)c2)C1CC(=O)N1CCCO1 (stereo unspecified),-0.7,.,.,.,-1.2,-5,-0.7,17,17%,-2
Cn1cc(NC(=O)Nc2ccc(C(F)(F)F)cc2)c(C(F)(F)F)n1,0.0,-48,-57,-14,-1.0,-8,1.2,3,?,0
CC1CCN(c2nc(-c3ccncc3)nc3ccccc23)CC1,0.0,.,.,.,.,8,-2.1,51,3%,2
C/C(=N/NC(=O)c1ccc(NC(=O)c2ccc(F)cc2)cc1)c1ccccc1,-1.2,.,.,.,.,-3,4.8,-9,1%,-14
O=C(CNCC1CCCO1)Nc1ccccc1-n1cccc1 (stereo unspecified),0.3,.,.,.,.,4,-1.4,-23,13%,-7
COc1ccc(-n2nc(C(=O)NCC(=O)N3CCCCCC3)c3ccccc3c2=O)cc1Cl,1.2,5,-5,7.2,1.7,3,-2.1,16,.,36
COc1ccccc1C(=O)Nc1ccc2c(c1)n(C)c(=O)n2C,0.9,-8,-3,-1.9,0.2,-3,1.7,-24,.,8
Cc1cc(C)n(-c2ccc(C(=O)Nc3ccccc3N3CCOCC3)cc2)n1,-0.4,.,.,.,.,0,5.7,8,?,-29
CC1CCN(CC(=O)Nc2sc3c(c2C#N)CCC3)CC1,0.9,.,.,.,.,2,?,17,16%,-2
CN1C2CCC1/C(=C\c1ccccc1)C(=O)/C2=C\c1ccccc1,-0.1,.,.,.,.,-22,-1.7,21,0%,17
CSc1ccccc1OCc1cc(C(=O)N(C)CCc2c(C)n[nH]c2C)no1,0.8,-28,-26,-4.4,1.1,3,2.6,-3,8%,0
CCCn1c(SCC(=O)NNC(=O)c2ccc(OC)cc2)nnc1C(C)C,0.1,1,5,2.2,2.1,-5,-1.2,-14,.,-1
Cc1nn(C)c(C)c1NS(=O)(=O)c1c(C)n[nH]c1C,-1.9,18,16,1.1,1.9,-5,.,.,-3%,.
COc1cc(C(=O)ON=C2C3CC4CC(C3)CC2C4)cc(OC)c1OC,-0.7,-22*,-7.4*,-0.3*,-3.6,8,-2.1,4,-6%,-17
Cc1ccc(-c2cc3nc(C)cc(NCc4ccco4)n3n2)cc1,-2.6,.,.,.,.,1,38*,0,7%,-8
CC(O)c1nc2ccccc2n1CCOc1ccccc1 (stereo unspecified),-0.4,.,.,.,.,-1,-2.4,-7,-6%,-1
N#C/C(=C\c1cn[nH]c1-c1ccc(Cl)cc1)C(=O)NCc1ccccc1,0.6,.,.,.,.,-5,3.1,-4,-10%,29
CC1(C(=O)NNC(=O)c2ccc(=O)oc2)CC1Br (stereo unspecified),1.0,12,3,2.8,-0.9,-6,17,-7,29%,-8
Cc1ccc(C(=O)NNC(=O)c2csc(N3CCOCC3)n2)o1,0.0,9,7,-3.5,2.6,.,0.3,-5,.,-3
Cc1ccc(NC(=O)CNCC(c2ccccc2)N(C)C)cc1F (stereo unspecified),-0.5,10,-6,-4.2,12,-3,9.4,2,12%,-2
O=C(OCCNc1nc(-c2ccccc2)nc2ccccc12)c1ccncc1,-0.3,-25,-35,-7.2,-2.1,-3,-0.9,18,.,37
O=C(Nc1ccc2ccccc2n1)C1CCCCC1,-4.1,-23,-19,-4.8,.,-2,-0.6,0,11%,-7
Cc1ccc2sc(N(CCCN(C)C)C(=O)c3ccc(S(=O)(=O)N4CCCCCC4)cc3)nc2c1C,0.5,-58,-82,-14,8.0,.,3.6,57*,-6%,-8
CC1=C(C(=O)OCc2ccccc2)C(c2cccnc2)c2c(n(C)c(=O)n(C)c2=O)N1 (stereo unspecified),0.5,-17*!,-11*!,6.3*!,2.5&2.0,-4,2.0,35,-8%&-4%,-10
CC12CC3(C)CC(C)(C1)CC(C(=O)NCc1ccccn1)(C2)C3,0.4,-16,-20,6.0,0.3,0,34*,7,10%,-9
CCCCn1c(N)c(N(CCC(C)C)C(=O)CC2OC(=O)c3ccccc32)c(=O)[nH]c1=O (stereo unspecified),0.9,8,7,-1.1,-13,2,0.1,10,1%,8
COc1cccc(N2CCN(S(=O)(=O)c3c(C)[nH]c(C)c3C(=O)N3CCCC3)CC2)c1,-0.4,8,6,1.9,0.0,-7,-2.1,-10,.,42
O=C(Nc1nncs1)c1ccc2c(c1)OCO2,-5.4,5,5,-1.5,2.0,1,1.3,-12,.,3
COc1cccc(CNC(=O)C2CCN(S(=O)(=O)c3ccc4c(c3)NC(=O)CO4)CC2)c1,-0.3,-2,-1,-1.5,-4.4,4,-1.8,-21,11%,0
Cc1cc(C)c(S(=O)(=O)Nc2cccc3nsnc23)c(C)c1,0.1,.,.,.,.,-4,3.5,-1,?,6
CCOC(=O)c1cnc(SC)nc1Oc1cccc(NC(=O)c2ccc(Cl)cc2)c1,-0.4,.,.,.,.,7,-0.7,.,11%,-2
N#CCCN(C(=O)CN1CCN(S(=O)(=O)c2ccc(Cl)s2)CC1)c1ccc(F)cc1,1.6,2,-2,-0.2,-0.7,-2,.,.,.,.
COC(=O)COc1cc(Cl)c(C=O)cc1OC,-2.8,5,2,-3.1,-1.0,34,2.3,-6,-4%,17
COc1ccc(-c2nc(C(=O)NCC3CCCO3)cc3c2[nH]c2ccccc23)cc1 (stereo unspecified),0.4,.,.,.,4.4,.,3.2,41,.,-3

# Following part:
SMILES,Bfl-1 A1 inh,rRNA inh HTS,rRNA inh HTS OD600,rRNA inh HTS RFP,AF4-AF9 inh,Beta apoptosis,RanGTP-Impb inh,T cruzi inh,Vif A3G,Calb FLC
CCC(=O)Nc1ccc(C(=O)CSc2nc3ccc(C)cc3[nH]2)cc1,0.4,.,.,.,.,-3,-0.4,-10,.,-17
Cc1ccc(C(=O)CCNc2ccc(Br)cc2)o1,-1.7,.,.,.,.,-8,3.6,14,5%,9
CCn1c(=O)c(=O)n(CC)c2cc(S(=O)(=O)Nc3cccc(OC)c3)ccc21,0.4,.,.,.,.,1,2.9,-15,5%,-7
O=C(N[C@@H]1C/C=C\C[C@@H](CC(=O)N(CCO)Cc2ccccc2)C(=O)N[C@H](Cc2ccccc2)COC1=O)OCC1c2ccccc2-c2ccccc21,-0.8,15,12,-1.3,1.9,50,.,.,.,.
CCN(CC)S(=O)(=O)c1ccc(N2CCOCC2)c(NC(=O)c2cc(-c3ccccn3)nc3ccccc23)c1,.,11,12,13,-0.1,.,2.2,14,2%,46
